# T cruzi inh – blocks replication of Trypanosoma cruzi; T. cruzi beta-gal in NIH3T3, luminescence, 90 h; inhibition, % (concentration not given with the values); 300,000 tested, 1.4% active;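 active = mean inhibition across valid replicates above about 55%, limit read from the data; inconclusive = mean below that limit but half or more replicates reach it; inactive = mean below it, under half of replicates reach it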;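 also: signal also drops with host cell toxicity which is not excluded here; 0% = plate median of DMSO wells and 100% = zero luminescence signal; higher percent means less beta-gal luminescence so fewer parasites; stock transfer was 50 nL into about 50 µL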
# rRNA inh HTS – inhibitors of bacterial rRNA selective over humanized ribosomes | GFP signal change (wild-type ribosome), % (no concentration beside the values) | AID 720706 | E. coli WT GFP vs humanized-ribosome RFP mutants, fluorescence, 24 h; stronger effect = lower value; DMSO median 0, no signal -100 | 350,000 tested, 1.6% active;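 active = significant combined selectivity score with lowered wild-type GFP, culture density cut under 30%, mutant RFP and density less affected; inactive = any of these conditions unmet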; also: one replicate is shown; some compounds called inactive have numbers as strong as hits
# FGF22 binding – binders of recombinant human FGF22 by thermal shift | Q9HCT0 | SYPRO orange fluorescence; percent of sucrose octasulfate shift, DMSO zero | calls only at 9.99 µM | 340,000 tested, 1.5% active | AID 651658;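 active = melting point raised past a set limit in the mean and every replicate; inconclusive = no clear call; three in four hits are not shown here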
# Target sequence (Q9HCT0 whole entry, looked up): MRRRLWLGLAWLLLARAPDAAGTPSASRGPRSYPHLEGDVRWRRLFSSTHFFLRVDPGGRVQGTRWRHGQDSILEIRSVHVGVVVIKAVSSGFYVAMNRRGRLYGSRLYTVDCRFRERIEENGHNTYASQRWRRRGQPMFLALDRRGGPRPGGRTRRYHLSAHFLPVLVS
# UCH37 inh – human UCH37 deubiquitinating enzyme inhibition; 330,000 tested, 0.33% active; Q9Y5K5; purified proteasome/UCH37, Ub-AMC cleavage fluorescence; inhibition, % (concentration not given with the values);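 active = mean of two replicates above 20%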;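 also: 0% = compound-free wells with enzyme and 100% = wells lacking proteasome; stock transfer was 100 nL into about 20 µL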
# Target sequence (Q9Y5K5 whole entry, looked up): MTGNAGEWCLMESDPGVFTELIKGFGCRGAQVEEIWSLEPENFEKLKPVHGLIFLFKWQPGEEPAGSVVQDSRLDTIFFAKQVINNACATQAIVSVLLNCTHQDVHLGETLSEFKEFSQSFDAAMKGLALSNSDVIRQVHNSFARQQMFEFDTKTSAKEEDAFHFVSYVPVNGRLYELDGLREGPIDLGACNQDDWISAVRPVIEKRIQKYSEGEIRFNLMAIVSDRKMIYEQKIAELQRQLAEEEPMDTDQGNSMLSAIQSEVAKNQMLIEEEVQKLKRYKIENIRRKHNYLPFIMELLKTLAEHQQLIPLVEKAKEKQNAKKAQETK
#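 Schedule: 30 min plus 25 min, room temperature / Material: human UCH37 within purified proteasomes / Technique: AMC fluorescence intensity at 355/460 nm / Buffer or medium: pH 7.4 Tris-HCl (50 mM) with ovalbumin, ATP-MgCl2, DTT / Controls: wells without proteasome as full block, compound-free enzyme plus substrate as uninhibited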
# Ecoli growth – E. coli growth inhibition; Escherichia coli growth, OD600, 23 h; stronger effect = lower value; OD600 absorbance (no concentration beside the values); 330,000 tested, 0.21% active;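 active = OD600 absorbance below the run mean of sample wells minus 3.6 SD, in any replicate, cut at about 0.56 in these data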;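 also: stock transfer was 300 nL into about 60 µL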
# MLL AF4-AF9 inh – inhibitors of human MLL-AF4/AF9 interaction. P42568. inhibition, % at 10 µM. 350,000 tested, 0.47% active. AlphaScreen, biotin-AF4 peptide binding to FLAG-AF9;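 active = every replicate reaching a set inhibition limit, whatever the replicate mean, cut at about 25% in these data; inconclusive = mean inhibition reaches that limit but some replicates miss it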;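 also: 0% = plate neutral control median and 100% = total signal loss; the record names both 10 and 1 µM as test concentration; the first replicate is given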
# Target sequence (P42568 whole entry, looked up): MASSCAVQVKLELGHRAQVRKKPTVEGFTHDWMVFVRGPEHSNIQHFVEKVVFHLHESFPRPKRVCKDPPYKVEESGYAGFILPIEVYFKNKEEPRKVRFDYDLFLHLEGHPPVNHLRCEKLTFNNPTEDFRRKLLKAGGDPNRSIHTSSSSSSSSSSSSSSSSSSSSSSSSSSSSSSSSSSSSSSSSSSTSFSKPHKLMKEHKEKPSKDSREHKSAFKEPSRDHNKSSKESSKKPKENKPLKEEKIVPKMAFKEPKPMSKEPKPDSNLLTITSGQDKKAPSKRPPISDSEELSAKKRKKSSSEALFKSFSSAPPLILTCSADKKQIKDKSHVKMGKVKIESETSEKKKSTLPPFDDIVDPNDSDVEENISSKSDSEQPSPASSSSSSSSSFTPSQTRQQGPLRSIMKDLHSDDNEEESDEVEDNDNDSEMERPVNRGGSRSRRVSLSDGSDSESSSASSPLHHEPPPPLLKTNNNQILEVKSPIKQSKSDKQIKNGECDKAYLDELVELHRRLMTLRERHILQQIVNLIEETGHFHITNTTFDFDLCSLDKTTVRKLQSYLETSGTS
# Beta apoptosis – beta cell apoptosis inhibition | protection from apoptosis, % (no concentration beside the values) | 300,000 tested, 0.8% active | INS-1E cytokine-induced death, ATP luminescence, 48 h; percent of positive-control rescue, neutral wells zero;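 active = all replicates at 75% or more, or half of them and the mean; inconclusive = half reach 75% but not the mean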;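 also: 0% = cytokine-treated negative control wells and 100% = positive control rescue; higher means more ATP so stronger rescue from cytokine killing; wells of about 40 µL received 100 nL stock; the first replicate is given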
# A1 inh – inhibitors of the anti-apoptotic protein A1, read as caspase activation; MEF A1-2A-BIM cells, Caspase-Glo 3/7 luminescence, 3 h; percent of clofoctol response, vehicle zero; caspase activation, % (no concentration beside the values); 330,000 tested, 0.066% active;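 active = over half of replicate activation scores above 10%, or exactly half above 10 with the replicate mean above 10; inconclusive = replicate mean below 10 yet half the replicates above 10; inactive = over half of replicates below 10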;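 also: wells of about 30 µL received 50 nL stock; many hits fall short of the cut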
# rRNA inh HTS OD600 – second read-out of rRNA inh HTS, no call of its own (marks repeat the call); OD600 change, %; measured here: OD600 growth;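 optical density of the mix in the first replicate; 0 = DMSO median and -100 = no signal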
# rRNA inh HTS RFP – also measured in rRNA inh HTS; calls as there; RFP signal change, %; measured here: RFP humanized mutant strains;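 first replicate; 0 = DMSO median and -100 = no signal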
# The depositor's hits bear a star; i = inactive; ? = inconclusive; . = not tested or not shown. This is a subset (hit frequency here may not be typical).
SMILES,T cruzi inh,rRNA inh HTS,rRNA inh HTS OD600,rRNA inh HTS RFP,FGF22 binding,UCH37 inh,Ecoli growth,MLL AF4-AF9 inh,Beta apoptosis,A1 inh
Cc1ccc(C(NC(=O)CN2C(=O)NC3(CCCC3)C2=O)c2ccccc2)cc1 (centres undefined),.,.,.,.,i,-0.8,0.71,-1.7,0,0.1
Oc1[nH]c2ccccc2c1N=Nc1ccc(C(F)(F)F)cn1,-2,.,.,.,.,3.2,0.71,.,12,-4.6
COc1ccccc1/C=C/C(=O)OCC(=O)NC1CC1,.,4,5,0.6,.,-68,0.64,-0.3,.,.
CCOc1cccc(CN2CCCC(N3CCc4cc(OC)c(OC)cc4C3)C2)c1O (centres undefined),65*,0,4,-2.2,i,.,.,7.2,-4,0.1
CN1CCN(C(c2cccs2)c2nnnn2Cc2ccc(F)cc2)CC1 (centres undefined),11,12,6,-4.5,i,1.1,0.45*,-0.7,-2,0.5
Cc1[nH]c2ccccc2c1C(=O)COC(=O)c1c(-c2ccccc2)noc1C,5,-8,-11,-2.2,i,0.9,0.71,2.6,12,-0.2
CC(C)CCCN1C(Nc2ccccc2)=NC[C@@H]1Cc1ccccc1,16,.,.,.,.,-0.3,.,.,9,0.7
CCOC(=O)Cn1nnnc1C,-13,3,17,2.2,i,1.8,0.71,-11,4,0.5
N=C(N)CCCOc1ccccc1-c1ccccc1,-5,5,3,3.5,i,.,.,-0.1,-8,?
COc1ccc(NC2CCCN(C(=O)c3ccc(C(C)=O)cc3)C2)cc1 (centres undefined),2,0,0,2.0,i,1.0,0.68,2.0,-3,0.6
CCCCN(C)CCCNC(=O)c1cn(CC)c2ccc(S(=O)(=O)N3CCc4ccccc4C3)cc2c1=O,53,-15,-34,40,i,2.5,0.69,6.1,-1,0.5
CNS(=O)(=O)c1cccc(C(=O)OCC(=O)N2c3ccccc3NC(=O)C2(C)C)c1,.,-1,3,-1.7,i,1.8,0.66,-4.4,-6,-0.3
CCOCCCNC1=C(Cl)C(=O)c2ccccc2C1=O,-6,-33,-28,6.4,i,24*,0.65,.,-2,-0.3
COc1ccc2nc(SCC(=O)NC(C)C)[nH]c2c1,-3,.,.,.,.,1.4,0.67,.,-5,-0.1
COc1ccc(N/C(=N/c2nc(C)cc(C)n2)NC(=O)c2ccccc2)cc1,0,-20*,-1.2*,-1.3*,i,.,.,0.3,-6,0.3
O=C(O)c1cc(S(=O)(=O)N2CCN(S(=O)(=O)c3ccccc3)CC2)ccc1Cl,-15,9,5,-3.0,i,5.6,0.7,-3.1,2,0.9
CC(C)COc1cccc(-c2cc(C(=O)Nc3ccon3)c3ccccc3n2)c1,21,-2,-2,-1.0,i,-21,0.71,5.3,8,0.0
CCc1n(CC(O)COCC2CC=CCC2)c2ccccc2[n+]1C (centres undefined),5,16,8,1.0,i,-0.1,0.72,-1.2,-4,1.0
COCCN1CCN(C(=O)c2cc(COc3ccc(F)c(F)c3)on2)CC1,-7,3,5,-1.9,i,0.3,0.65,-2.6,-2,-0.5
O=C(N/N=C/c1ccccn1)c1cccc(S(=O)(=O)Nc2ccccc2Cl)c1,-13,-40*,-10*,-13*,i,.,.,-3.0,-4,0.2
COCCOC(=O)C1=C(C)NC(=O)NC1c1c(Cl)nc2ccccn2c1=O (centres undefined),-6,.,.,.,.,6.2,0.67,.,-5,1.6
CC(C)c1ccc(/C=C/C(=O)N2CCc3ccccc3C2)cc1,8,-25,-38,-15,i,-1.3,0.73,-1.7,-2,-0.5
Cc1cccn2c(=O)c(/C=C3\SC(=S)N(CC(C)C)C3=O)c(NCCCOC(C)C)nc12,.,.,.,.,.,9.5,0.72,.,3,0.1
Cc1nn(-c2ccccc2)c(C)c1/C=N/NC(=O)c1cc(-c2cccc3ccccc23)n[nH]1,39,-9,-4,-0.5,i,.,.,-0.7,8,-0.9
O=C(CSc1ncn[nH]1)N1CCCCC1,-7,9,0,-2.9,i,5.0,0.71,-1.9,-11,-0.9
# (listing goes on)
SMILES,T cruzi inh,rRNA inh HTS,rRNA inh HTS OD600,rRNA inh HTS RFP,FGF22 binding,UCH37 inh,Ecoli growth,MLL AF4-AF9 inh,Beta apoptosis,A1 inh
CCCc1c(O)nc(SCC(=O)NCc2ccco2)[nH]c1=O,7,7,3,0.7,i,4.9,0.7,-1.0,-11,-0.4
O=C(CSc1ccccc1)NCC1(N2CCOCC2)CCCCC1,2,0,0,2.4,i,3.0,0.7,-4.0,.,0.9
COc1ccc(CCNC(=O)COC(=O)c2ccc(F)c(S(=O)(=O)N3CCOCC3)c2)cc1,.,0,1,-2.7,i,0.9,0.66,0.6,-2,-1.1
COc1ccc(/C=C/C(=O)Nc2cc(C(F)(F)F)ccc2Cl)cc1OC,48,.,.,.,.,-23,0.7,.,12,0.5
CSc1nc(N2CCOCC2)cc(N2CCOCC2)n1,3,9,2,0.0,i,-0.3,0.68,-1.2,3,0.7
CC(C)Cc1nc2sc3c(=O)[nH]cnc3c2c2c1CCC2,13,.,.,.,.,-29,0.65,.,-1,1.0
O=C(NCc1ccc2c(c1)OCO2)Nc1ccc2ccccc2c1,-2,13,7,3.1,i,-0.5,0.65,-0.3,-1,2.5
COc1ccc(CNC(=O)C2CC=CCC2C(=O)O)cc1OC (centres undefined),-1,.,.,.,.,1.7,0.78,.,4,0.6
COc1cc(/C=C2\SC(N)=NC2=O)cc(Br)c1O,-5,-8,-4,3.7,i,10,0.69,-0.4,4,?
Cc1ccc(OCC(=O)NC(=S)Nc2ccccn2)c(Br)c1,1,-2,0,2.4,i,3.1,0.72,0.0,-6,-0.6
COc1cc2c(c3oc(=O)cc(CC(=O)O)c13)CCC(C)(C)O2,2,-9,-33,-1.2,i,i,0.67,-2.6,3,0.2
CN(Cc1ccc(F)cc1)C(=O)c1ccc(NC(=O)CC2SC(N3CCCC3)=NC2=O)cc1 (centres undefined),5,-5,-3,2.8,i,0.5,0.64,3.6,2,0.2
Cc1ccc(-c2csc(C(C#N)=C3CCCC3)n2)cc1,14,.,.,.,.,3.9,0.67,.,5,0.1
CC1=C(CC(=O)NCC(=O)NCC(=O)O)c2cc(F)ccc2/C1=C/c1ccc(S(C)=O)cc1 (centres undefined),-15,1,4,-0.5,i,8.6,0.63,-3.5,0,1.2
CC(C(=O)Nc1cccc(C#N)c1)N(C)CCOc1ccccc1 (centres undefined),12,-11,-13,1.1,i,1.7,0.68,-1.4,2,0.3
c1ccc(-c2csc3ncn4cnnc4c23)cc1,-2,.,.,.,.,1.1,0.69,.,.,-0.7
CC(=O)N1c2ccc(S(=O)(=O)NCCc3ccccc3)cc2CC1C (centres undefined),4,3,-10,2.6,i,2.4,0.71,-2.1,26,0.9
NC(=O)C1CCN(c2oc(-c3ccccc3)nc2S(=O)(=O)c2ccc(Br)cc2)CC1,26,10,14,-1.7,i,2.2,0.69,-0.5,.,0.8
CCNC(=O)NC(=O)C(C)OC(=O)CCS(=O)(=O)c1ccc(C)cc1 (centres undefined),-10,2,-10,-1.0,i,-0.1,0.66,0.3,-5,-0.3
Cc1cccc(C(=O)N/C(=C\c2ccco2)C(=O)N2CCCC2)c1,-14,-2,10,1.0,i,3.5,0.69,-2.1,-8,0.0
CC(=O)Nc1cccc(-c2nnc3c4ccccc4c(C)nn23)c1,3,.,.,.,.,1.2,0.73,.,-1,-0.9
CCOC(=O)N1CCC(NC(=O)c2cccnc2SC)CC1,0,.,.,.,.,-1.6,0.71,.,-8,-0.3
CCOC(=O)C1C(=O)NC(c2ccccc2)=NC1c1ccc(C(C)C)cc1 (centres undefined),-12,.,.,.,.,4.5,0.8,.,3,-0.1
N#CCCn1cc(C(=O)Nc2ccc([N+](=O)[O-])cc2)c(-c2cccs2)n1,5,.,.,.,.,6.2,0.64,.,3,-0.1
COc1ccc(COC(=O)NNC(=O)c2ccccc2Cl)cc1,-7,.,.,.,.,0.5,0.69,.,-9,-0.2
# (more compounds)
SMILES,T cruzi inh,rRNA inh HTS,rRNA inh HTS OD600,rRNA inh HTS RFP,FGF22 binding,UCH37 inh,Ecoli growth,MLL AF4-AF9 inh,Beta apoptosis,A1 inh
Cc1ccc(NC(=O)CSc2nnc(N)s2)c([N+](=O)[O-])c1,-15,-2,-9,1.7,i,4.8,0.7,-2.4,-4,0.6
Cc1nnc(SCC(=O)Nc2nccs2)o1,-15,14,19,0.5,i,1.3,0.7,-0.5,-10,1.6
O=c1c2ccccc2cnn1Cc1n[nH]c(=S)n1-c1ccccc1F,-5,-2,0,0.4,i,0.3,0.69,-9.8,.,1.4
CCOC(=O)CNC(=O)CSc1nnnn1-c1cc(C)ccc1C,-26,.,.,.,.,1.8,0.75,.,-4,0.1
COC(=O)c1cc(Oc2ccc(C(=O)OC)cc2N)cc(C(=O)OC)c1,4,.,.,.,.,0.8,0.65,.,1,1.7
CSc1ccc(S(=O)(=O)NCCCn2ccnc2)cc1,-3,-4,-1,-4.5,i,-0.1,0.67,0.4,-2,-0.9
COc1ccc(CN(C)C(=O)c2ccc(NS(=O)(=O)c3ccc(F)cc3)cc2)c(OC)c1,4,-10,-21,3.6,i,4.6,0.67,-1.2,-6,-0.5
CCCCNc1cc(NC(C)=O)cc2cc(OC)c(OC)cc12,4,.,.,.,.,-15,0.64,.,1,0.4
CCOC(=O)C(=CNc1ccc2c(c1)c1ccccc1n2CC)C(=O)OCC,9,-1,0,9.0,i,-81,0.69,-23,0,0.9
COc1cccc(CN2CCN(C(=S)NCc3ccc(Cl)cc3)CC2)c1,7,-50,-77,-23,i,1.9,0.65,0.7,.,2.3
CC1CCCCC1NC(=O)COC(=O)CCC(=O)c1cccs1 (centres undefined),.,5,-3,1.3,i,1.6,0.69,-0.3,-4,-0.2

# Full records from above. Order of values: T cruzi inh, rRNA inh HTS, rRNA inh HTS OD600, rRNA inh HTS RFP, FGF22 binding, UCH37 inh, Ecoli growth, MLL AF4-AF9 inh, Beta apoptosis, A1 inh
# Record of CCCCNc1cc(NC(C)=O)cc2cc(OC)c(OC)cc12 : 4, ., ., ., ., -15, 0.64, ., 1, 0.4
# Record of COc1cc(/C=C2\SC(N)=NC2=O)cc(Br)c1O : -5, -8, -4, 3.7, i, 10, 0.69, -0.4, 4, ?
# Record of COc1ccc(CN(C)C(=O)c2ccc(NS(=O)(=O)c3ccc(F)cc3)cc2)c(OC)c1 : 4, -10, -21, 3.6, i, 4.6, 0.67, -1.2, -6, -0.5
# Record of CCOCCCNC1=C(Cl)C(=O)c2ccccc2C1=O : -6, -33, -28, 6.4, i, 24*, 0.65, ., -2, -0.3
# Record of O=c1c2ccccc2cnn1Cc1n[nH]c(=S)n1-c1ccccc1F : -5, -2, 0, 0.4, i, 0.3, 0.69, -9.8, ., 1.4

# Source: PubChem BioAssay
